TsaE inh – displaces an ADP probe from E. coli YjeE (TsaE). P0AF67. purified YjeE, fluorescence polarisation of a bound ADP probe. Potency, µM. 71,000 tested, 0.05% active; active = well fitted falling curve; inconclusive = weaker or top-dose-only fall, or a rising curve; inactive = flat or poorly fitted curve;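 also: top concentration of the series not given in the record; excess ADP was the control for the full effect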
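Purified YjeE (10 uM) with BODIPY Texas Red-labeled ADP probe (2 uM); compounds pin-transferred, 15 min at room temperature. Binding inhibition read as decreased fluorescence polarization; ADP titration as control.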
Bst PK mod – modulators of Bacillus stearothermophilus pyruvate kinase; Potency, µM; partly purified Bacillus stearothermophilus pyruvate kinase, luminescence ATP production; ribose 5-phosphate activator present at AC10; 51,000 tested, 1.2% active; in the data active means potency below about 11 µM; inconclusive means mostly about 12 µM to 25 µM; inactive means weaker than that;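 the screen sought inhibitors and activators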;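 also: potency is read from the fitted curve at half-maximal effect; scaled between full activation by ribose 5 phosphate and full inhibition by luteolin; about four in five hits inhibit and the cells do not say which; series up to 57 µM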
An asterisk follows results filed as active; i = inactive; ? = inconclusive; · = not tested or not shown. An excerpt, so the mix of outcomes need not match the whole.

smiles,TsaE inh,Bst PK mod
COC(=O)c1ccc(S(=O)(=O)NCc2cccc(OC)c2)n1C,i,>57
CCOc1ccc2[nH]c(=O)c(CN(CCOC)C(=O)N3CCOCC3)cc2c1,i,>57
COC(=O)CSc1nc2cc3c(cc2cc1C#N)OCO3,i,>57
Cc1ccc(-c2nc(CSCC(=O)NCCN3CCN(Cc4ccccc4)CC3)c(C)o2)cc1,i,>57
CCOC(=O)C1=C(C)NC(=O)NC1c1cccnc1 (centres undefined),i,·
CC1CCCCC1NC(=O)c1cc2c(s1)CS(=O)(=O)C2 (centres undefined),i,>57
Cc1cccc(NC(=O)CSc2nnc(CCCCCNC(=O)OC(C)(C)C)o2)c1C,i,>57
COC(=O)C(F)(F)Sc1c(C)[nH]c2ccccc12,i,>57
COC(=O)CNC(=O)C1(CC(C)C)C=CCN1C(C)=O (centres undefined),i,·
O=C(Cn1cnc2ccccc2c1=O)Nc1ccc2c(c1)OCCO2,i,i
CC(C)(C)NC(=O)C(OC(=O)Cn1nnc(-c2ccc(F)cc2)n1)c1ccncc1 (centres undefined),i,>57
O=c1sc2ccccc2n1CCOc1ccccc1,i,>57
CCOC(=O)Cc1cc(=O)n2[nH]c(C)c(-c3ccccc3)c2n1,i,>57
CC(=O)Nc1ccc(S(=O)(=O)N2CCCC2C(=O)O)cc1 (centres undefined),i,·
Cc1cc(=O)n2ncnc2n1COCCO,i,·

(next part)
smiles,TsaE inh,Bst PK mod
COc1ccc(C(=O)NCC(c2cccnc2)N2CCN(c3ccc(F)cc3)CC2)cc1OC (centres undefined),i,·
COc1oc(-c2ccccc2)nc1C(F)(F)F,i,>57
CCN1CCN(Cc2nc3c(c(=O)n(C)c(=O)n3C)n2C(C)C(C)=O)CC1 (centres undefined),i,>57
Cc1cccc(-c2nc(CN3CCCC(C(=O)NC4CCCC4)C3)c(C)o2)c1 (centres undefined),i,>57
COc1ccccc1OCCCc1c(C)n[nH]c1C,i,·
CC(NC(=O)Cc1cccs1)C(c1cccs1)N1CCOCC1 (centres undefined),i,>57
CCn1nnc(NC(=O)COc2ccc(C3CCCCC3)cc2)n1,i,>57
CCOC(=O)Cc1cn2c(=O)cc(CSCC(=O)Nc3ccc(C)c(C)c3)nc2s1,i,>57
COC(=O)[C@@]1(Cc2ccc(OC)cc2)[C@H]2c3cc(C(=O)N4CCCC4)n(Cc4ccc(OC)c(OC)c4)c3C[C@H]2CN1C(=O)c1ccccc1,i,·
Cc1cc(N2CCN(c3ccccc3)CC2)n2c(n1)nc1ccccc12,i,>57
O=C(CCNS(=O)(=O)c1cccs1)NCc1ccco1,i,>57
c1ccc(-c2noc(-c3ccc4ccccc4c3)n2)cc1,i,3.66*
Cc1cc2ccccc2c(=O)n1CC(=O)NCC(=O)N1CCN(c2ccccc2F)CC1,i,>57
COc1ccccc1NC(=O)C(O)C(O)C(=O)Nc1ccccc1OC (centres undefined),i,>57
Cc1cc(NC(=O)Cn2nc(C(F)(F)F)c3c2CCCC3)no1,i,>57

(listing goes on)
smiles,TsaE inh,Bst PK mod
Cc1cccc(-n2nnc(C(=O)NCc3ccc4c(c3)OCO4)c2N)c1,i,>57
O=C(CCN1CCN(c2ccc(Cl)cc2)CC1)Nc1ccccc1F,i,>57
CS(=O)(=O)N1CCC(C(=O)Nc2ccc(Cl)c(C(F)(F)F)c2)CC1,i,>57
CC(=O)c1ccc(N2CCN(C(=O)c3cc(C)on3)CC2)cc1,i,>57
Cc1ccc(NS(=O)(=O)c2cccc(C(=O)O)c2)c(C)c1,i,>57
CCn1cc(C(=O)OCC(=O)OC2CC(C)CCC2C(C)C)c(=O)c2ccc(C)nc21 (centres undefined),i,>57
CC(C)(C)NC[C@H](O)COc1cccc2c1CCCC2=O,i,·
COC(=O)[C@@]1(Cc2ccc(OC)cc2)[C@H]2c3cc(C(=O)N4CCCC4)n(CCc4c[nH]c5ccc(O)cc45)c3C[C@H]2CN1C(=O)c1ccccc1,i,·
COc1ccccc1-c1ccc2ncnc(NCc3ccccc3)c2c1,i,·
O=C(O)C(Cc1cccs1)C(=O)O,i,·
CC(C)(C#CCN1CCCC1)OCCC#N,i,·
Cc1c(C(=O)N2CCCC2)oc2c1-c1[nH]ncc1CC2,i,·
C/C(=N/NS(=O)(=O)c1ccc(C)cc1)P(=O)(O)O,i,·
O=C(NCCc1ccccc1)C1CCN(S(=O)(=O)c2cccnc2)CC1,i,·
CCC(=O)N1CCc2cc(S(=O)(=O)NCCC(=O)Nc3ccccc3C)ccc21,i,>57

3 entries from above, with the structure last.
TsaE inh,Bst PK mod,smiles
i,>57,O=C(CCN1CCN(c2ccc(Cl)cc2)CC1)Nc1ccccc1F
i,>57,CS(=O)(=O)N1CCC(C(=O)Nc2ccc(Cl)c(C(F)(F)F)c2)CC1
i,>57,CC(=O)c1ccc(N2CCN(C(=O)c3cc(C)on3)CC2)cc1

(cont.)
smiles,TsaE inh,Bst PK mod
COCC(=O)NC1CCN(C(=O)NCc2ccccc2)CC1,i,>57
CCCc1ncc(C(O)c2ccc(OC)cc2)n1C (centres undefined),i,·
Cc1ccc(S(=O)(=O)N(C)c2nonc2C)cc1,i,>57
Cc1ccc(S(=O)(=O)N2C(=O)CCC2C(=O)N2CCN(C)CC2)cc1 (centres undefined),i,>57
O=C(Nc1ccc2c(c1)CCC2)C1CCCO1 (centres undefined),i,>57
CCOC(=O)C1=C(C)NC(C)=C(C(=O)OC)C1c1cccc([N+](=O)[O-])c1 (centres undefined),·,>11.4
COc1ccc2c(c1OC)CN(C)CCc1cc3c(cc1C(O)C2)OCO3 (centres undefined),i,>57
O=c1c(-c2cccs2)nc2cnc(Oc3ccccc3)nc2n1C1CC1,i,·
CS(=O)c1ccc(-c2nc(-c3ccc(F)cc3)c(-c3ccncc3)[nH]2)cc1 (centres undefined),i,·
O=C(O)CCC/C=C\C[C@H]1[C@@H](/C=C\[C@@H](O)C2Cc3ccccc3C2)[C@H](F)C[C@H]1O,i,·
CCC(=O)Nc1nc2ccc3nc(C)sc3c2s1,i,·
c1ccc(C(c2nnnn2Cc2cccs2)N2CCN(C3CCCC3)CC2)cc1 (centres undefined),i,>57
CCN1C(=O)/C(=C2/Sc3ccc(OC)cc3N2C)SC1=Nc1cccc(O)c1,i,>57
CCN(CCCNC(=O)CNC(=O)Cn1cnc2ccccc2c1=O)c1ccccc1,i,>57
c1ccc2c(c1)OCC(c1nn3cnnc3s1)O2 (centres undefined),i,>57

Next section
smiles,TsaE inh,Bst PK mod
CCc1c(C)sc(NC(=O)C2CCCCC2C(=O)O)c1C(N)=O (centres undefined),i,·
O=C(Nc1ccc(S(=O)(=O)N2CCOCC2)cc1)c1ccc(Cl)s1,i,>57
c1ccc(CNc2nc(-c3ccoc3)nc3ccccc23)cc1,i,·
CCOC(=O)c1sc(=S)n(-c2cc(OC)ccc2OC)c1N,i,>57
C=CCNC(=O)C1CC(=O)N(c2ccc(OCC(=O)Nc3cccc(OC)c3)cc2)C1 (centres undefined),i,>57
COc1ccccc1Nc1nc(-c2cccs2)cs1,i,·
COCCn1c(SCC(=O)c2cccc(OC)c2)nnc1-c1ccco1,i,>57
Cc1nnc(SCC(=O)Nc2ccccc2NC(=O)CSc2nnc(C)s2)s1,i,>57
Cc1cc(C)cc(Nc2ncc3c(n2)CC(c2ccco2)CC3=O)c1 (centres undefined),i,>57
O=C1CCCC/C1=C\Nc1ccccc1C(=O)O,i,>57
O=S(=O)(c1ccc2c(c1)OCCO2)N1CCN(c2nc3ccccc3s2)CC1,i,>57
CCn1c(SCC(=O)Nc2cc(NC(C)=O)ccc2OC)nnc1-c1ccncc1,i,>57
NC1=NCCCC1,i,·
CC12CCC(c3c(C(=O)O)nn(-c4ccccc4)c31)C2(C)C (centres undefined),i,>57
COc1cccc(Nc2nnc(SCC(=O)N3CCOCC3)s2)c1,i,·

(cont.)
smiles,TsaE inh,Bst PK mod
COCC(=O)N1CCC[C@@]2(CCN(C(=O)Nc3cccc(F)c3)C2)C1,i,·
CC(=O)c1c(C)oc2ccc(NS(=O)(=O)c3ccc(O)c(C(=O)O)c3)cc12,i,>57
O=c1oc2cc(N=Cc3ccc4c(c3)OCO4)ccc2c2ccccc12,i,·
COc1ccc(CN2CCCC(C(=O)N(C)Cc3ccccc3)C2)cc1OC (centres undefined),i,>57
Cc1ccc(Cn2c(SCC(=O)Nc3cccc(C)n3)nc3c2c(=O)n(C)c(=O)n3C)cc1,i,>57
O=C(OC(C(=O)NCc1cccs1)c1ccccn1)c1cccs1 (centres undefined),i,>57
O=C(CSc1nc2c([nH]c3ccccc32)c(=O)n1-c1cccc(Cl)c1)N1CCOCC1,i,·
CN(C)S(=O)(=O)c1ccc(C(=O)N2CCCC2c2nc3ccccc3s2)cc1 (centres undefined),i,>57
O=C(NC1CCCCC1)c1ccc(S(=O)(=O)NCc2ccco2)cc1,i,>57
Cc1cccc2[nH]c(-c3ccc(NC(=O)c4ccco4)cc3)nc12,i,?
Cn1c(=O)n(-c2cccc(Cl)c2)c(=O)n1C,i,>57
Cc1noc(/C=C/c2ccco2)c1S(=O)(=O)N1CCC(C(=O)N2CCc3ccccc3C2)CC1,i,>57
COc1ccc2cc3c(N)c(C(=O)NCc4ccco4)sc3nc2c1,i,i
C=CCOc1cccc(C2/C(=C(/O)c3ccc(Cl)cc3)C(=O)C(=O)N2CCN2CCOCC2)c1 (centres undefined),i,>57
COc1cc(NC(=O)CS(=O)(=O)c2ccc(C)cc2)cc(OC)c1OC,i,>57

Further records:
smiles,TsaE inh,Bst PK mod
Cc1ccc(SCCNC(=O)CN2C(=O)c3ccccc3S2(=O)=O)cc1,i,·
CCN1CCN(Cc2ccc(NC(=O)Nc3ccc(OC)cc3)cc2)CC1,i,·
CC(C)(C)NCc1cc2ccccc2[nH]c1=O,·,>25.6
Cc1nc2cc(C(=O)NCCN3CCOCC3)ccc2n1-c1ccc(F)cc1F,i,>57
CCCC(=O)NC(C)C(c1cccs1)N1CCN(C)CC1 (centres undefined),i,>57
O=C(NCCN1CCOCC1)c1cn(CCc2ccccc2)nn1,i,>57
c1ccc(-c2ccc(OCCOCCn3cncn3)cc2)cc1,i,·
CCOC(=O)c1cccc(NC(=O)c2cnc3ccccc3n2)c1,i,·
O=C(O)c1ccc2[nH]c3c(c2c1)CSCC3,i,>57
COc1cccc(-c2nn(C)c3sc(C(=O)NCc4ccc(C)o4)cc23)c1,i,>57
Cc1nonc1NC(=O)CSc1nnc(-c2ccoc2C)n1CC(C)C,i,>57
O=C1CN=C(Nc2cccc(C(F)(F)F)c2)N1C1CCCC1,i,>57
O=C(NCc1nnc(SCC(=O)N2CCCC2)o1)c1c(F)cccc1Cl,i,>57
O=C(CN(Cc1ccco1)C(=O)CNS(=O)(=O)c1ccc(F)cc1)NCCc1ccccc1,i,>57
CCCOc1ccc(/C(O)=C2/C(=O)C(=O)N(CCOC)C2c2cccnc2)cc1 (centres undefined),i,>57

Among those listed so far, these have a cyano group:
smiles,TsaE inh,Bst PK mod
COC(=O)CSc1nc2cc3c(cc2cc1C#N)OCO3,i,>57
CC(C)(C#CCN1CCCC1)OCCC#N,i,·

(next part)
smiles,TsaE inh,Bst PK mod
COc1cc2[nH]c(=O)n(CCCCCC(=O)NCCCN3CCC(C)CC3)c(=O)c2cc1OC,i,>57
C=CCN(Cc1cc(OC)ccc1OC)S(=O)(=O)N(C)C,i,>57
COC(=O)c1ccc(C(NC(=O)OCc2ccccc2)/C(C)=C/[C@@H](C)C(=O)NCCN2CCOCC2)cc1 (some centres undefined),i,·
Cc1c(NC(=O)c2ccc(=O)oc2)c(=O)n(-c2ccccc2)n1C,·,>11.4
O=C(CN1C(=O)CCS(=O)(=O)c2ccccc21)Nc1cccc(F)c1,i,>57
COCCNC(=O)Cc1cn(C)c2ccccc12,i,>57
O=C(O)CCNC(=O)c1ccc(Br)o1,i,>57
CCCC(c1nnnn1Cc1ccc(OC)cc1)N1CCN(c2ccccc2OC)CC1 (centres undefined),i,>57
COc1ccc2[nH]c(=O)c(CN(C)C(=O)c3ccncc3)cc2c1,i,>57
CCCn1c(SCC(=O)N2CCN(c3ccc(OC)cc3)CC2)nc2c1c(=O)n(C)c(=O)n2C,i,>57
Cc1ccccc1N(CC(=O)NC1CCCC1)C(=O)CS(=O)CC(=O)Nc1ccc2c(c1)OCO2 (centres undefined),i,>57
CN(C)/C=N/c1c(C#N)nnn1Cc1ccccc1,i,>57
COc1ccc(-n2c(=O)[nH]cc(C(=O)Nc3ccc(NC(C)=O)cc3)c2=O)cc1,i,>57
O=C(CCn1nc(-c2ccccc2)ccc1=O)NCCCN1CCCCCC1,i,>57
O=C(OCC1CCCN2CCCCC12)c1ccc2c(c1)OCO2 (centres undefined),i,>57

(cont.)
smiles,TsaE inh,Bst PK mod
Cc1nc2ccc3[nH]snc3c2n1,i,·
O=C(COc1ccc(-n2cnnn2)cc1)NCCc1ccc(F)cc1,i,>57
CCn1c(SCc2nc(-c3ccc(OC)c(OC)c3)no2)nnc1-c1cccs1,i,>57
CN1CCN(C(=O)c2c(O)c3cccc4c3n(c2=O)CC4)CC1,i,>57

Source: PubChem BioAssay
